Compound activity: PubChem, ICCB-Longwood Screening Facility, Harvard Medical School
CapD inh – Bacillus anthracis CapD inhibitors, primary screen, biochemical, fluorescence intensity. purified CapD enzyme, fluorescence intensity read-out; active compounds read low; some hits fall short of the stated cut. z-score (concentration not given with the values). 0.23% of 140,000 active;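 active = z-score under -4 in either of two replicates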;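 also: stock transfer was 100 nL into about 40 µL; score is relative to mean and spread of the plate; one replicate is shown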
AID504770 – growth inhibition of E. coli YBA685, primary screen, V. cholerae RctB inhibitors | E. coli YBA685 rctB-dependent plasmid, OD600 growth, 3 h; active compounds read low | z-score (concentration not given with the values) | 0.27% of 130,000 active;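 active = z-score under -2 on both plates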;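 also: wells of about 30 µL received 100 nL stock; score is relative to mean and SD of the test wells; the first replicate is given; strong numbers were not always called active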
Active calls of the source: *; . = no result given.

Start of the listing, in advance:
| structure | CapD inh | AID504770 |
| --- | --- | --- |
| O=C(c1ccc(F)cc1)C1CCN(Cc2cn[nH]c2-c2ccccc2)CC1 | 0.66 | 0.35 |
| CN(C)/C=N/C(=S)NC1CC2C=CC1C2 (stereo not drawn) | -0.13 | -0.55 |
| Cc1cccc(NC(=O)Cn2c(O)c(N=N)c3ccccc32)c1 | -0.23 | 2.4 |
| C#CCn1c(=NC(=O)c2ccc(N3C(=O)CCC3=O)cc2)sc2cc(Br)ccc21 | . | 0.55 |

This part in full, repeating the preview:
| structure | CapD inh | AID504770 |
| --- | --- | --- |
| O=C(c1ccc(F)cc1)C1CCN(Cc2cn[nH]c2-c2ccccc2)CC1 | 0.66 | 0.35 |
| CN(C)/C=N/C(=S)NC1CC2C=CC1C2 (stereo not drawn) | -0.13 | -0.55 |
| Cc1cccc(NC(=O)Cn2c(O)c(N=N)c3ccccc32)c1 | -0.23 | 2.4 |
| C#CCn1c(=NC(=O)c2ccc(N3C(=O)CCC3=O)cc2)sc2cc(Br)ccc21 | . | 0.55 |
| CCC(=O)N1CCc2cc(S(=O)(=O)CCC(=O)NCc3ccccc3)ccc21 | -0.29 | -2 |
| O=C1CNC(=S)N1Cc1ccccc1 | -0.15 | . |
| COc1cc(OC)c(NC(=O)CSc2nc3[nH]ncc3c(=O)n2-c2ccc(Cl)cc2)cc1Cl | -0.56 | . |
| CC(Nc1nc(-c2ccc([N+](=O)[O-])cc2)nc2ccccc12)c1ccccc1 (stereo not drawn) | 0.085 | . |
| CCOCCOC(=O)C1=C(C)NC2=C(C(=O)CC(c3ccccc3)C2)C1c1ccc(OC)c(OC)c1 (stereo not drawn) | 12 | . |
| O=C1C2CCCCC2=NN1c1ccccc1 (stereo not drawn) | -0.17 | -1.5 |
| O=C1CC(C(=O)NCc2ccc(F)cc2)C2=C(CCCC2=O)N1 (stereo not drawn) | -0.41 | -0.2 |
| CSc1sc2ccccc2[n+]1C | 0.51 | -0.15 |

| structure | CapD inh | AID504770 |
| --- | --- | --- |
| Cc1[nH]ccc(=O)c1OCc1ccc(Cl)cc1 | 1.2 | . |
| COc1ccc(NC(=O)N=S2CCN(S(=O)(=O)c3ccc(Cl)cc3)CC2)cc1 | 0.5 | -0.9 |
| CC1CCCCN1C(=O)C1COc2ccccc2O1 (stereo not drawn) | . | -0.55 |
| O=S(=O)(NCc1ccncc1)c1ccc(C2CCCCC2)cc1 | . | -1.2 |
| O=c1c(-c2ccccc2)c(O)nc2sc3ccccc3n12 | -0.18 | -1.4 |
| CC(=O)OC[C@H]1O[C@@H](Oc2cccc3ccccc23)[C@H](OC(C)=O)[C@@H](OC(C)=O)[C@@H]1OC(C)=O | 1.6 | . |
| C=CCN=C(SC)N1CCN(C(=NCC=C)SC)CC1 | 0.38 | 0.4 |
| CCN1CCN(C(C)C(=O)NCc2ccc(OC)cc2)CC1 (stereo not drawn) | . | 0.4 |
| COc1ccc(-c2nc3ccccc3c(=O)n2NCc2ccc(Br)s2)cc1OC | -0.36 | . |
| COCc1[nH]nc2c1C(c1ccccc1C(F)(F)F)C(C#N)=C(N)O2 (stereo not drawn) | . | -0.65 |
| Cn1c(/N=C(\C#N)c2nc3ccccc3[nH]2)c(N)c(=O)n(C)c1=O | . | 2.2 |
| Cc1ccc(Cn2c(=N)n(CC(=O)c3ccccc3)c3ccccc32)cc1 | . | -0.6 |

| structure | CapD inh | AID504770 |
| --- | --- | --- |
| CC(OC(=O)Cc1ccsc1)C(=O)Nc1ccc(C(N)=O)cc1 (stereo not drawn) | . | 0.3 |
| O=C(CC1C(=O)N(c2ccccc2)C(=O)N1Cc1ccco1)Nc1ccccc1 (stereo not drawn) | -0.74 | 0.55 |
| C=C(C)CNC(=O)CCC(=O)N1CCc2cc(S(C)(=O)=O)ccc21 | 0.2 | . |
| O=C(Nc1nc2c(Br)cc(Br)cc2c(=O)s1)C1CCC1 | 0.49 | 0.55 |
| COc1ccc(NC(=O)c2cc([N+](=O)[O-])ccc2N2CCCCC2)cc1 | -0.55 | . |
| Fc1cccc(Nc2n[nH]c(=S)s2)c1 | -1.3 | -0.05 |
| CC1(C)NCCNC1=O | . | -0.35 |
| Cc1cc(/C=C2\C(=O)NC(=S)N(c3ccc(Cl)cc3)C2=O)c(C)n1-c1cc(C(=O)O)cc(C(=O)O)c1 | -6.2* | . |
| N#Cc1ccc(Oc2ccc(Cl)cc2Cl)cc1 | -0.11 | -0.1 |
| COc1ccc2oc(=O)c(-c3nc(-c4cc(C)ccc4C)cs3)cc2c1 | -0.32 | . |
| FC(F)(F)c1cnc(NNC(=S)NCC2CCCO2)c(Cl)c1 (stereo not drawn) | . | 0.5 |
| CCOC(=O)C1=CN(Cc2ccc(OC)cc2)C=C(C(=O)OCC)C1c1cc(Br)c(O)c(OC)c1 | 11 | . |

| structure | CapD inh | AID504770 |
| --- | --- | --- |
| CCOC(=O)C(C#N)C(c1cccnc1)c1[nH]c(C)nc1O (stereo not drawn) | -0.17 | -1.9 |
| Cc1nnc(N2C(=O)C(=O)/C(=C(/O)c3ccc(Cl)cc3)C2c2cccc(Oc3ccccc3)c2)s1 (stereo not drawn) | -0.65 | . |
| CSc1nc(N)n(-c2ccccc2)n1 | -0.16 | . |
| Cc1cc(C(=O)OCC(=O)NC2CCCC(C)C2C)c(C)o1 (stereo not drawn) | -0.085 | 0.2 |
| CCOC(=O)C(Sc1ncn[nH]1)c1ccccc1 (stereo not drawn) | 0.11 | . |
| NS(=O)(=O)c1cc([N+](=O)[O-])c(N2CCN(C(=O)OCc3c(F)cccc3Cl)CC2)s1 | -1.3 | . |
| CCC(CC)C(=O)N1c2ccc(C)cc2C(=C2SC(C(=O)OC)=C(C(=O)OC)S2)C(=S)C1(C)C | 1 | . |
| CCC(C(=O)N1c2ccccc2Sc2ccc(C(F)(F)F)cc21)N1C(=O)c2ccccc2C1=O (stereo not drawn) | 0.065 | 2.2 |
| COCc1cc(=O)[nH]c(SCC(=O)Nc2cc(C)cc(C)c2)n1 | 0.17 | -0.05 |
| CN(C(=O)Nc1ccccc1)C12CC3CC(CC(C3)C1)C2 | . | -0.25 |
| Cc1c(C(=O)O)oc2ccc(S(=O)(=O)NCCC(C)C)cc12 | 0.03 | -0.2 |
| Cc1ccc(NC(=O)C/C(N)=N/OCc2ccc(C#N)cc2)cc1 | . | 1.1 |

Single values from the entries so far:
CCC(CC)C(=O)N1c2ccc(C)cc2C(=C2SC(C(=O)OC)=C(C(=O)OC)S2)C(=S)C1(C)C in CapD inh is listed with 1
COCc1cc(=O)[nH]c(SCC(=O)Nc2cc(C)cc(C)c2)n1 in CapD inh is listed with 0.17
Cc1c(C(=O)O)oc2ccc(S(=O)(=O)NCCC(C)C)cc12 in CapD inh is listed with 0.03

New compounds follow:
Compound	CapD inh	AID504770
O=C(CSCc1cccc(C(F)(F)F)c1)c1cc(-c2ccccc2)no1	0.015	.
O=c1c(COc2cccnc2)cc2cccc3c2n1CCC3	2.2	.
CC1(C)Oc2ccccc2OC1(O)c1ccc2ccccc2n1 (stereo not drawn)	.	0.1
CNC(=S)N/N=C/c1ccc(C(C)C)cc1	-2.1	-0.95
COC(=O)c1cc2c(s1)CCC2	-0.035	-0.35
NS(=O)(=O)c1ccc(C(=O)N/N=C/c2ccc([N+](=O)[O-])s2)cc1	0.055	.
O=C(Cc1cccs1)Nc1nnc(C2CC2)s1	.	0.75
Cc1ccnc(Nc2nc3ccccc3s2)n1	0.39	1.4
FC(F)Oc1ccc(C2N=C(c3ccccc3)NO2)cc1 (stereo not drawn)	.	0.15
CC1(C)CC2=[N+]([O-])CN(O)C2C(C)(C)N1O (stereo not drawn)	0.28	-0.2
CC(C)(C)c1cc(=O)[nH]c(SCc2ccccc2)n1	0.28	-1.4
OCc1ccc(OCc2ccc(F)cc2)cc1	0.15	2.2
COC(=O)c1cc2oc(C)cc2n1CC(=O)NCCC1=CCCCC1	0.24	2
N#Cc1ccc(-c2csnn2)cc1	-0.15	.
O=C(CCC(=O)N(Cc1ccccc1)Cc1ccccc1)Nc1ccc(F)cc1	0.54	0.5
Cc1ccc(C(=O)NNC(=O)c2c(C)noc2-c2cc(C)on2)cc1	-0.7	.
O=C(O)CCn1nc(Nc2ccccc2)n(-c2ccccc2)c1=S	-0.62	1.5
C=CCNC(=S)Nc1ccc(N2CCN(c3ccc(C(F)(F)F)cn3)CC2)nc1	0.16	-0.2
CC(=O)NC(c1ccc(Cl)cc1)n1ccnc1 (stereo not drawn)	1.8	-0.2
Cc1ccccc1OCC(=O)N(Cc1nnc(-c2ccc(Cl)cc2)o1)C(C)C	.	-0.85
COc1ccc(Nc2nc(Cl)nc(Nc3ccc(OC)cc3OC)n2)c(OC)c1	0.65	.
CC(=O)N1CC(=O)N(Cc2ccccc2)/C(=C/c2ccc(F)cc2)C1=O	0.035	.
CN1CCCN(C(=O)Cc2cccs2)CC1	0.38	-0.4
CCN1C(=O)c2cccc3c(NC(=O)C(C)(C)C)ccc1c23	-0.18	-0.15
Cc1cc(N2CCOCC2)nc2ccc(NC(=S)N3CC(C)CC(C)C3)cc12 (stereo not drawn)	-0.015	-1.4

Quoted at random: two entries already listed
Compound	CapD inh	AID504770
Cc1nnc(N2C(=O)C(=O)/C(=C(/O)c3ccc(Cl)cc3)C2c2cccc(Oc3ccccc3)c2)s1 (stereo not drawn)	-0.65	.
CCOC(=O)C1=CN(Cc2ccc(OC)cc2)C=C(C(=O)OCC)C1c1cc(Br)c(O)c(OC)c1	11	.

(continued)
Compound	CapD inh	AID504770
CCCCCc1ccc(C(=O)O/N=C/c2c(Cl)cccc2Cl)cc1	-0.35	.
Cc1ccc(N2C(=O)CC(SCC(=O)Nc3cc(C(F)(F)F)cc(C(F)(F)F)c3)C2=O)cc1[N+](=O)[O-] (stereo not drawn)	-0.12	.
O=C(c1ccccc1)n1ccc2ccccc21	0.71	-0.55
Cc1c(-c2ccnc(N)n2)nnn1-c1ccc(Cl)cc1Cl	4.9	.
Cc1c2cnn(-c3ccccc3)c(=O)c2c(C)n1CCCC(=O)NCCc1ccccc1	3.7	-1.4
COc1ccc(C(=O)N/N=C/c2cc(F)ccc2F)cc1	-0.07	.
CCC(C)NC(=O)CN1N=C(c2ccc(Cl)cc2)CCC1=O (stereo not drawn)	-0.04	0.95
CCN(C(=O)COc1ccc(Br)cc1F)C1CCS(=O)(=O)C1 (stereo not drawn)	.	-0.2
COc1ccc(C(=O)NCc2ccc(-c3nc4ncccc4o3)cc2)c(OC)c1	.	0.4
CNC(=O)c1nn(-c2ccccc2)nc1CO	-0.89	-0.55
Cc1cc(NCCc2ccccc2)n2ncnc2n1	0.22	-1.8
CCN(CC)C(=O)CSc1ccc(S(=O)(=O)N2CCN(C)CC2)cn1	.	0.45
O=C(NNc1ncnc2ccccc12)c1ccc(Br)cc1	.	0.1
O=C(c1cnn(-c2ccccc2)c1-n1cccc1)N1CCC2(CC1)OCCO2	0.4	1.9
O=C1C2C3c4ccccc4C(CO)(c4ccccc43)C2C(=O)N1c1cccc([N+](=O)[O-])c1 (stereo not drawn)	0.29	.
O=C1NCCCCC1NS(=O)(=O)c1cc(S(=O)(=O)c2ccccc2)cs1 (stereo not drawn)	0.59	0.7
COC(=O)c1sccc1NC(=O)Cc1nn(C)c(=O)c2ccccc12	-0.45	.
O=C1N/C(=N\c2ccccn2)SC1Cc1ccc(Br)cc1 (stereo not drawn)	0.18	.
CNS(=O)(=O)c1ccc(Cl)cc1	.	-1
O=C(O)c1ccc(-c2nc3ccccc3s2)cc1	14	-0.95
Cc1ccccc1C(=O)c1ccccc1C(=O)O	-0.51	.
COc1ccc(C2N(C(C)=O)CCCN2S(=O)(=O)c2ccc(C)cc2)cc1 (stereo not drawn)	0.18	0.65
COc1ccc(CCN2C(=O)CC(C(=O)Nc3ccccc3)SC2=Nc2ccccc2)cc1OC (stereo not drawn)	-0.07	.
Cc1sc2nc[nH]c(=S)c2c1-c1ccccc1	-2.1	0.15
CCOC(=O)Cc1csc(NC(=O)Cc2ccccc2)n1	0.45	0

Compound	CapD inh	AID504770
O=C(NCc1nc(-c2ccc(C(F)(F)F)cc2)no1)Nc1ccc(F)cc1F	0.57	0.4
Nc1c(C(=O)NCc2ccccc2)sc2nc3c(c(-c4cccs4)c12)CCC3	-0.95	.
C=C1N(Cc2ccccc2)C(=O)OC1(C)C	0.29	-0.5
NN(CCO)C(=S)NCc1ccc(Cl)cc1	-1.4	1.8
O=C(O)C1CC2CC3CC(C2)CC1(O)C3 (stereo not drawn)	-0.8	2.3
COC(=O)c1sc(S(C)(=O)=O)c(C#N)c1-c1cc(C(C)(C)C)oc1C	1	0.75
O=C(O)c1cccc(NS(=O)(=O)/C=C/c2ccccc2)c1	-0.43	-0.85
CCC(=O)Nc1cc2nc3[nH]c(=O)n(CCc4ccccc4)c(=O)c3nc2cc1C	0	0
O=C(NC(c1ccccc1)c1ccc(Cl)cc1)OCCCc1ccncc1 (stereo not drawn)	0.81	.
O=C(Nc1ccc(N2CCOCC2)cc1)c1ccccc1	-0.31	-0.9
Cc1nc(C(F)(F)F)c(C(=O)NC(c2ccc(Cl)cc2)C(C)C)s1 (stereo not drawn)	0.17	.
C=CCN1C(=O)CSc2ccc(C(=O)OCC)cc21	0.77	1.4
Cc1ccc(-c2nnc(NC(=O)c3ccc(S(=O)(=O)N4CCCCC4)cc3)s2)cc1	-0.61	.
O=S(=O)(/C=C/c1ccccc1)n1ccnc1	0.54	0.2
Cc1nc2nncn2c(NCCC(C)C)c1C	-0.4	-1.1
OCc1ccc2ccccc2n1	.	-0.3
COc1ccc(NC(=O)CNc2cccc(Oc3ccccc3)c2)cc1	-0.24	0.6
Cc1ccc2c(c1)-c1c(ssc1=S)C(C)(C)N2Cc1ccccc1	0.015	.

Compound profiles, from the list above. Values in the order: CapD inh, AID504770
`O=C(NNc1ncnc2ccccc12)c1ccc(Br)cc1` is entered as ., 0.1
`Cc1[nH]ccc(=O)c1OCc1ccc(Cl)cc1` is entered as 1.2, .
`Cc1ccnc(Nc2nc3ccccc3s2)n1` is entered as 0.39, 1.4

A portion of the library. The share of hits here may be higher or lower than overall.
